# H5N1 CPE: MDCK cell protection from H5N1 avian flu | cytopathic effect, luminescence, 72 h; hits give high values; no value below 0 was filed and about half of the inactive calls have no number; reference of the scale not given here | inhibition, % at 50 µM | hit rate 0.07% among 96,000; in the data active = inhibition above about 25%
# * marks the source's active call; other numbers are inactive results; i = inactive. Some of the compounds tested; count on the stated rates, not on these rows.
Structure	H5N1 CPE
COc1cccc(CNC(=O)CN(C)S(=O)(=O)c2cnc[nH]2)c1	i
O=C(CSc1nnc(-c2cccnc2)n1Cc1ccco1)N1c2ccccc2Sc2ccccc21	2.5
COc1ccc2c(c1OC)C(=O)N(C(C)C(=O)O)C2=O (configuration not stated)	i
N#CC1=C2SCCN2C(=O)C(C#N)C12CCCCC2 (configuration not stated)	0.1
COc1cc2c(cc1OC)-c1cc(NC3CCCCC3)nc(=O)n1CC2	0.4
CCOC(=O)C1CCN(/C=C2/C(=O)NC(=O)N(Cc3ccco3)C2=O)CC1	0.3
COc1cccc(-c2nc3cc(C)ccc3o2)c1	i
Cc1ccccc1N1CCN(C(=O)CN2C(=O)c3ccccc3C2=O)CC1	i
CCCc1cc(C(=O)Cc2nc3ccccc3s2)c(O)cc1O	i
CCOc1ccc(N(CC(=O)NC(C)CC)S(C)(=O)=O)cc1 (configuration not stated)	0.6
N=c1ccn(Cc2cccc(Cl)c2)cc1	i
CCn1c(SCc2ccc(C)cc2)nnc1-c1cnccn1	i
c1ccc(Cn2nnc3c(Nc4ccc5c(c4)OCO5)nc(C4CC4)nc32)cc1	1.2
Cc1noc(C)c1CSc1nnc(-c2cc(Cl)ccc2Cl)n1N	2.4
O=C(O)c1cnn(-c2ccccc2)c1-c1ccccc1	i
CCOCCCNC(=O)C1CCN(S(=O)(=O)CC)CC1	0.5
Cc1nn(C)c(C)c1/C=C1/SC(=S)NC1=O	1.1
CCN(CC)C(=O)c1cnn(-c2ccccc2)c1NC(=O)c1cccc(F)c1	i
Cc1ccc2cccc(OC(=O)c3ccc4c(c3)OCCO4)c2n1	1.5
CC(=O)Nc1cc2c(=O)n(Cc3ccccc3)c(C)nc2cc1N1CCOCC1	i
Cc1cccc(C)c1NC(=O)CS(=O)CC(=O)NCCCc1ccccc1 (configuration not stated)	0.6
O=C(/C=C/c1ccco1)Nc1cccc(-c2nc3ccccc3[nH]2)c1	i
Cc1nc2ncnn2c(C)c1CCC(=O)Nc1ccc(S(=O)(=O)N2CCCCCC2)cc1	1.7
Cc1ccc2cc(CCNC(=O)C(C)C)c(=O)[nH]c2c1	0.4
Cc1cc(NC(=O)CCN2C(=O)c3ccccc3C2=O)no1	0.4
CCOC(=O)c1c(NC(=O)c2ccoc2C)sc2c1CCC2	i
COc1ccc(CCNS(=O)(=O)c2ccc3c(c2)oc(=O)n3C)cc1OC	0.8
O=C1C(Cl)=C(N2CCN(Cc3ccccc3)CC2)C(=O)N1c1ccccc1	0.3
COCCCNC(=S)NC1CC2CCCC(C1)N2Cc1cccs1 (configuration not stated)	i
Cc1nc(CSc2nnc3scc(-c4ccccc4)n23)cs1	1.9
CC1CN(S(=O)(=O)c2ccc(Cl)c(C(F)(F)F)c2)CC(C)O1 (configuration not stated)	0.4
Cc1c(NS(=O)(=O)c2cccs2)c(=O)n(-c2ccccc2)n1C	i
O=C(c1cccn2c(=O)c3cc4ccccc4cc3nc12)N1CCN(c2ccccc2)CC1	i
CCOC(=O)N1CCC(NS(=O)(=O)c2ccc3c(c2)OCC(=O)N3)CC1	i
COc1ccc(CNC(=O)c2ccc(NS(=O)(=O)c3c(C)noc3C)cc2)cc1	i
CC(C)(C)C(=O)Nc1nc(C2CCCN2S(=O)(=O)c2ccc(Cl)cc2)cs1 (configuration not stated)	1.0
COc1cccc(C(=O)Nc2ccc(N3CCN(Cc4ccccc4)CC3)cc2)c1	i
COc1ccc(CCn2c(N)c(C(=O)NCc3ccco3)c3nc4ccccc4nc32)cc1OC	i
CCC(=O)N(c1ccc(F)cc1)C1C=CS(=O)(=O)C1 (configuration not stated)	i
CN1C(=O)N(C)C2(c3ccccc3)N(C)C(=O)NC12c1ccccc1 (configuration not stated)	1.1
COCC(=O)Nc1nc2n(n1)C(c1ccc(OC)cc1)CC(c1ccc(OC)cc1)N2 (configuration not stated)	i
COc1ccc(C2SCC(=O)N2c2c(C)n(C)n(-c3ccccc3)c2=O)cc1OC (configuration not stated)	i
Cc1ccc(C)c(N2CCN(c3ncnc4c3cnn4-c3ccccc3)CC2)c1	5.1
Cn1c(=O)c2c(nc(N3CCOCC3)n2CC(=O)C23CC4CC(CC(C4)C2)C3)n(C)c1=O	1.7
Cc1cc(=O)oc(C)c1C(=O)NCCc1ccccc1	0.6
Cc1ccc(-c2noc(CN3CCN(c4ccccc4F)CC3)n2)cc1	i
Cc1cc(NC(=O)Nc2ccc(F)c(Cl)c2)no1	0.1
Cc1ccc(N2Cc3ccccc3OC(C)C2=O)cc1 (configuration not stated)	0.1
COc1ccccc1-n1nnnc1SCc1ccccc1	i
C(=N\Nc1ncnc2sc3c(c12)CCC3)/c1ccncc1	i
COc1ccc(S(=O)(=O)n2ccc(C(C)Oc3ccc(-c4ccccc4)c(F)c3)n2)cc1 (configuration not stated)	1.1
O=C(c1ccc2c(c1)OCCO2)C1CCN(C(=O)c2ccc(F)cc2)CC1	1.8
COc1ccc(OC)c(NC(=O)COC(=O)c2c3c(nc4ccccc24)CCCC3)c1	i
Cc1cccc(C)c1OCCn1nc(C(=O)O)c2ccccc2c1=O	0.8
Cc1cccc(OCC(=O)Nc2ccc(C(=O)NCc3cccnc3)cc2)c1	i
CCC1(CC)Cc2ccccc2C(=C(C#N)C#N)N1	1.5
Clc1ccc2c(NCc3ccco3)ncnc2c1	6.3
Cc1nn(CCO)c2c1C(=O)CCC2	0.1
Cc1ccc(Cl)cc1N1CCN(Cc2nc3ccsc3c(=O)[nH]2)CC1	i
COc1ccc(NC(=O)c2cccc(S(=O)(=O)N3CCOCC3)c2)cn1	0.4

# Additional results
Structure	H5N1 CPE
Cc1ccc(C(=O)OCC(=O)c2ccc(Cl)s2)s1	i
Cc1cccc(NC(=O)c2ccccc2[N+](=O)[O-])n1	0.3
Cc1ccc(-c2ccc(OCC(=O)N3CCOCC3)cc2)cc1	0.3
CC(CN1CCN(c2ccccc2)CC1)c1ccccc1 (configuration not stated)	2.5
O=C(NCc1ccccc1)N1CCC(c2nc3ccccc3[nH]2)CC1	i
O=C(Nc1ccc(F)cc1F)c1ccco1	i
N=C1c2ccccc2CN1NC(=O)c1ccc(Cl)cc1	i
COC(=O)C1CCN(Cc2ccc(C)cc2)CC1	0.6
CC(=O)Nc1ccc(Nc2ncnc3c2cnn3-c2ccccc2)cc1	38.2*
Cn1c(=O)c2c(nc(NC3CCCCC3)n2CC(=O)C23CC4CC(CC(C4)C2)C3)n(C)c1=O	i
CCN(CC)C(=O)CC(c1ccccc1)c1ccco1 (configuration not stated)	2.0
CN(c1cccc(NC(=O)c2ccccc2N(C)S(C)(=O)=O)c1)S(C)(=O)=O	i
COc1ccc(C2CC(c3cccc(OC)c3)n3nc(N)nc3N2)cc1 (configuration not stated)	1.2
O=C(NC1CS(=O)(=O)CC1NCc1ccccc1)c1ccccc1 (configuration not stated)	0.9
CN(Cc1ccccc1)C(=O)c1cc2ccccc2o1	i
CC(Oc1ccccc1)C(=O)Nc1cccc(-c2nc3ccccc3[nH]2)c1 (configuration not stated)	0.1
c1cnc(SCCCOc2ccc3ccccc3c2)nc1	i
Cc1nc(NCCCn2ccnc2)c2oc3ccccc3c2n1	0.6
O=C(CC1Nc2ccccc2NC1=O)NC1CCCCC1 (configuration not stated)	i
Cc1c(CCC(=O)O)c(=O)oc2cc(O)ccc12	i
CC(C)C(c1nnnn1C1CCCC1)N1CCCCC1 (configuration not stated)	i
Cc1ccc2cc3cc(C(=O)NCCCN4CCCCCC4)oc3nc2c1	i
COc1ccc(S(N)(=O)=O)cc1C(=O)NCC1(N2CCCCC2)CCCCC1	1.0
O=C(COc1ccc(/C=N/NC(=O)c2cc3ccccc3o2)cc1Cl)Nc1ccccc1	i
Cc1nc2c(sc3nc4c(cc32)COC(C)(C)C4)c(=O)n1Cc1ccccc1	1.0
Cn1c(Cl)c(C(=O)Nc2ccc(Cl)cc2)c2ccccc21	i
Cn1c(Sc2ccc([N+](=O)[O-])cc2C(F)(F)F)nnc1-c1ccccc1	0.3
O=C(NCCN1CCOCC1)c1ccncc1	1.5
O=C(Nc1cccc2ncccc12)C(Cl)(Cl)Cl	i
Cc1nc(SCC(=O)Nc2cccc(Cl)c2)n[nH]1	i

# Two of the compounds above, with each value named.
> Cc1cccc(OCC(=O)Nc2ccc(C(=O)NCc3cccnc3)cc2)c1
- H5N1 CPE: i

> CCC1(CC)Cc2ccccc2C(=C(C#N)C#N)N1
- H5N1 CPE: 1.5

# Other structures.
compound,H5N1 CPE
CC(C)(C)OC(=O)NCCC(=O)Oc1ccc2ccc(=O)oc2c1,i
Cc1cccn2c(=O)c(/C=C(\C#N)S(=O)(=O)c3ccccc3)c(N3CCC(C(N)=O)CC3)nc12,0.7
O=C(NC1CCCC1)c1cnn2c(C(F)(F)F)cc(-c3ccco3)nc12,9.0
Cc1ccc2cc(CN(CCN3CCCC3)C(=O)Nc3ccc(F)cc3)c(=O)[nH]c2c1C,i
Cc1nn(-c2ccc(C(=O)O)cc2)c(C)c1Oc1ccccc1O,0.3
CC(Oc1ccccc1)C(=O)Nc1ccc(S(=O)(=O)N2CCOCC2)cc1 (configuration not stated),i
O=C(CNS(=O)(=O)c1cccs1)Nc1ccc2c(c1)OCCO2,i
CSc1nsc(SCC(=O)Nc2ccc(C(C)=O)cc2)n1,i
COc1ccc(C(=O)N2CCSC2=S)cc1OC,0.3
Cc1cc(C)c(NC(=O)C2CCCN2CCO)c(C)c1 (configuration not stated),1.5
O=C1N=C(N2CCOCC2)CS1,i
O=C(NCCCn1ccnc1)c1ccc2c(c1)OCCO2,i
CCOC(=O)CCc1c(C)nc(SCCCn2c(=O)[nH]c3ccccc32)c(C#N)c1C,1.8
Cc1cccc(-n2ncc3c(N4CCC(C)CC4)ncnc32)c1,0.7
c1ccc(C2=Nn3c(nnc3-c3cc(-c4ccccc4)n[nH]3)SC2)cc1,3.0
O=C(CSc1nnc(COc2ccccc2)n1Cc1ccco1)c1ccc(F)cc1,2.2
CCOC(=O)C1=C(C)NC2=C(C1c1ccc([N+](=O)[O-])cc1)S(=O)(=O)c1ccccc12 (configuration not stated),5.8
Cc1ccc(OCC(=O)c2c(O)c3ccccc3oc2=O)cc1C,0.0
CCOC(=O)N1CCN(C(=O)CSc2nnc(-c3cc(OC)ccc3OC)o2)CC1,0.2
CCNc1nc(NCC)nc(SCCOC(=O)COc2ccc(Cl)cc2Cl)n1,i
CC1=NN(C(=O)c2ccc(Cn3nc(C)cc3C)o2)C(O)(C(F)(F)F)C1 (configuration not stated),i
COc1ccc(NC(=O)N(C2CCCCC2)C(C)c2ccco2)c(OC)c1 (configuration not stated),0.2
CN1CCN(NC(=O)CN2C(=O)/C(=C/c3c(Cl)cccc3Cl)SC2=S)CC1,i
COCCCn1c(=N)c(C(=O)NCc2ccc3c(c2)OCO3)cc2c(=O)n3ccccc3nc21,4.4
Cc1c(C(=O)O)c2cc(O)ccc2n1-c1ccccc1,i
CCN(CC)c1nc2c(s1)C(=O)CC(C)(C)C2,1.1
COCC(=O)Nc1nnc(-c2cccs2)s1,3.9
CCOC(=O)N1CCN(Cc2nc(N)nc(Nc3ccc(OCC)cc3)n2)CC1,0.1
Fc1ccc(NCc2cn3ccccc3n2)cc1,i
O=C(COc1ccc2oc3c(c2c1)CCCC3)Nc1ccccn1,0.8
COc1ccc(NC(=O)CSc2nnc(C3CC3)n2-c2ccccc2)cc1,0.9
Nc1nc(Nc2cccc(C(F)(F)F)c2)nc(C(F)(F)F)n1,i
N#Cc1ccccc1Cn1c(=O)n(Cc2ccc(C(=O)NCc3ccco3)cc2)c(=O)c2ccccc21,0.9
O=C(CSc1nnc(-c2cnccn2)n1Cc1ccco1)c1ccc(Cl)cc1,i
CCCc1nc2c(C)ccc(C)c2c(N)c1CC,0.3
CCN(CC)CCOC(=O)c1c(C)n(C)c2ccc(OC)cc12,0.3
COc1ccc(C)cc1NS(=O)(=O)c1ccc(NS(=O)(=O)c2ccc(NC(C)=O)cc2)cc1,i
Cc1ccnc2c1NC(=O)c1cccnc1N2C1CC1,i
CC1CC(C)CN(C(=O)CSC2=Nc3ccccc3C3=NC(Cc4c[nH]c5ccccc45)C(=O)N23)C1 (configuration not stated),3.3
CCOC(=O)c1ccc(S(=O)(=O)n2c(CN3CCCCC3)nc3ccccc32)cc1,i
CC1CC=C2C(C#N)=C(N)C(C#N)(C#N)C(c3cccs3)C2C1 (configuration not stated),1.2
CCn1c2ccccc2c2cc(NC(=O)c3ccc(Br)o3)ccc21,1.4
CCN(CC)C(=O)C1=C(C)NC(=S)NC1c1cn(-c2ccccc2)nc1-c1ccc(Cl)cc1 (configuration not stated),i
Cn1c(=O)c2c(nc(Br)n2Cc2ccc3ccccc3c2)n(C)c1=O,0.9
O=S(=O)(c1ccc(S(=O)(=O)N2CCN(Cc3ccccc3)CC2)cc1)N1CCOCC1,0.6

# In the list so far, these have bromine.
compound,H5N1 CPE
CCn1c2ccccc2c2cc(NC(=O)c3ccc(Br)o3)ccc21,1.4
Cn1c(=O)c2c(nc(Br)n2Cc2ccc3ccccc3c2)n(C)c1=O,0.9

# Later entries:
compound,H5N1 CPE
CCOC(=O)c1ccc(S(=O)(=O)N2CCC(C(=O)OCC)CC2)cc1,0.7
O=S(=O)(c1cccs1)N1CCCc2cccc(O)c21,i
CCN(CC)C(=O)c1cc(-c2ccccc2OC)on1,0.1
CC1(C)CC(=O)C(C=NCCN2CCN(C(=S)Nc3ccccc3)CC2)=C(O)C1,0.0

# An excerpt taken from the entries so far, for reference:
compound,H5N1 CPE
CC1CC=C2C(C#N)=C(N)C(C#N)(C#N)C(c3cccs3)C2C1 (configuration not stated),1.2
CCn1c2ccccc2c2cc(NC(=O)c3ccc(Br)o3)ccc21,1.4
CCN(CC)C(=O)C1=C(C)NC(=S)NC1c1cn(-c2ccccc2)nc1-c1ccc(Cl)cc1 (configuration not stated),i
Cn1c(=O)c2c(nc(Br)n2Cc2ccc3ccccc3c2)n(C)c1=O,0.9
O=S(=O)(c1ccc(S(=O)(=O)N2CCN(Cc3ccccc3)CC2)cc1)N1CCOCC1,0.6
CCOC(=O)c1ccc(S(=O)(=O)N2CCC(C(=O)OCC)CC2)cc1,0.7

# 2 of the compounds above, with each value named.
SMILES: O=S(=O)(c1cccs1)N1CCCc2cccc(O)c21
  H5N1 CPE = i

SMILES: CCN(CC)C(=O)c1cc(-c2ccccc2OC)on1
  H5N1 CPE = 0.1
